# Screening data (PubChem)
# HNF4A DNA FP: change in binding of human HNF4 alpha to DNA. AID 1224865. HNF4a-FITC DNA binding, fluorescence polarization, 1 h. 0.3% of 360,000 active. activity change, % at 10 µM. P41235; in the data active = activity change above about 30%, passing the limit was not always enough;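 note: controls were the assay level and a saturating level of protein; the project sought stronger binding though the title names inhibitors; some compounds called inactive have numbers as strong as hits; positive values seem to mean higher polarization but the record does not say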
# Target sequence (P41235 whole entry, looked up): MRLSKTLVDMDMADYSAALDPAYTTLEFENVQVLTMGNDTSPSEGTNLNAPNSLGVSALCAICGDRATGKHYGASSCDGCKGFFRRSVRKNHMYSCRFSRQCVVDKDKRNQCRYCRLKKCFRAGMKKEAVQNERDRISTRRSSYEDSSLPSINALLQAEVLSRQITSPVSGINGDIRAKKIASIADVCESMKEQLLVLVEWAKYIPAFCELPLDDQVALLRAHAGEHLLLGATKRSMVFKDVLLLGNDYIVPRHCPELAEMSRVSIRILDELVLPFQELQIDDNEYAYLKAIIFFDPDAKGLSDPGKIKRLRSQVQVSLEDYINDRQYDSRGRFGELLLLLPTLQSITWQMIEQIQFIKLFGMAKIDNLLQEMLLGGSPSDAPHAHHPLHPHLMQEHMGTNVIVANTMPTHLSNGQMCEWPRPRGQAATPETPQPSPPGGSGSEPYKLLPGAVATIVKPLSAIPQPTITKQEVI
# B2AR ag: human beta-2 adrenergic receptor agonism by FAP; P07550; Am2.2-beta2AR cells, FAP receptor internalization, flow cytometry; reference of the scale not given here; response, % (no concentration beside the values); 0.43% of 340,000 active; AID 504454;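 active = response above a set limit, near 3 SD of response in nonfluorescent compounds, cut at about 42% in these data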;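 note: stock transfer was 100 nL into about 11 µL; a reference agonist was the positive control; negative values mostly stem from fluorescent compounds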
# Target sequence (P07550 whole entry, looked up): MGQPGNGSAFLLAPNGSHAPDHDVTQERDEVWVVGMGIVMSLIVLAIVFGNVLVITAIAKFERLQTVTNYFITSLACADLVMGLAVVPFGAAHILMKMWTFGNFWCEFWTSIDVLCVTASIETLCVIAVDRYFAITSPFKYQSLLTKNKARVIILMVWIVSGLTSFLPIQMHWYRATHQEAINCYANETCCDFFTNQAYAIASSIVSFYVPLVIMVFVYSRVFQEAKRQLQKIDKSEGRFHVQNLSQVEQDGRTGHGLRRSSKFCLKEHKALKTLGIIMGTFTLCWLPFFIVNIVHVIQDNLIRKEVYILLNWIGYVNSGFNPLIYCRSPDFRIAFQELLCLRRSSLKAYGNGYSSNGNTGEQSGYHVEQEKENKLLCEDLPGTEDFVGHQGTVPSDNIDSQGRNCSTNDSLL
# RanGTP-Imp inh: disruptors of Ran-importin-beta complex formation – biochemical, FRET, CFP-Ran, YFP-importin-beta, homogeneous, primary screen | 1.1% of 300,000 active | inhibition, % (no concentration beside the values) | cell-free CFP-Ran/YFP-importin-beta FRET ratio;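 active = most replicates above 15%; inconclusive = exactly half above 15%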;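 note: 0% = DMSO wells and 100% = Ran loaded with GDP instead of GTP; wells of about 40 µL received 100 nL stock; the first replicate is given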
# ALR inh: inhibitors of human sulfhydryl oxidase ALR; 3.8% of 290,000 active; AID 485317; purified ALR, DTT oxidation, H2O2 HRP-luminol luminescence; inhibition, % (no concentration beside the values); P55789;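 active = mean and each replicate at 75% or more; inconclusive = only one of the two met; inactive = neither met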;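 note: stock transfer was 7.5 nL into about 7.5 µL; 0% = neutral wells and 100% = wells with inactivated enzyme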
# Target sequence (P55789 whole entry, looked up): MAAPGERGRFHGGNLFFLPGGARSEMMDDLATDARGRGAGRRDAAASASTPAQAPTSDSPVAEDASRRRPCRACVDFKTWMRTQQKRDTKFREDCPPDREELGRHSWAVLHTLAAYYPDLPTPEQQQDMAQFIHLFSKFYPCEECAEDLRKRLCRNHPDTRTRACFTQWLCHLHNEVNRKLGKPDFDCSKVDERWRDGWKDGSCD
# LANA-H2A inh: blocks KSHV LANA binding to histone H2A/H2B; cell-free LANA-H2A/H2B peptide, fluorescence polarization; Q9QR71; 0.6% of 320,000 active; inhibition, % (test concentration not listed); AID 2629; in the data active = inhibition mostly above about 10%, no sharp cut-off; inactive = mostly below about 6.7%;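 note: stock transfer was 7.5 nL into about 10 µL; 0% = median of vehicle wells and 100% = median of positive control wells; one replicate is shown; the record names a cut of 25% in any replicate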
# Calb FLC: affects C. albicans growth with fluconazole; C. albicans CaCi-2 (fluconazole-resistant clinical isolate) + fluconazole, Alamar Blue growth, 48 h; growth inhibition, % (no concentration beside the values); 0.57% of 300,000 active; AID 1979;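 active = most replicates above 75%; inconclusive = exactly half above 75%; inactive = most below 75%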;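 note: all wells also contain fluconazole at 8 µg/ml as a sub-toxic cotreatment; 0% = median of DMSO wells and 100% = median of geldanamycin control wells; wells of about 8 µL received 7.5 nL stock; the first replicate is given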
# Vif A3G: inhibitors of Vif binding to APOBEC3G peptide, primary screen, biochemical, TR-FRET, GST-Vif 1-94, biotin-A3G peptide, dose response retest (AID 1117319) | TR-FRET GST-Vif / biotin-A3G peptide binding; higher % means a stronger effect; test concentration not given here; strong numbers were not always called active | 0.57% of 260,000 active | inhibition, %; hits with a dose series show IC50 in µM;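 active = above the screen mean plus three standard deviations and confirmed in dose response; inconclusive = results disagree or hit not tested in dose response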;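 note: Vif residues 1-94 fused to GST binding biotinylated APOBEC3G peptide 110-148; 0% = full assay without inhibitor and 100% = GST in place of GST-Vif; retest series ran down from 100 µM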
# * hit, by the source's call; i = inactive; u = inconclusive; x = no result given; & = joins results of further samples.
SMILES,HNF4A DNA FP,B2AR ag,RanGTP-Imp inh,ALR inh,LANA-H2A inh,Calb FLC,Vif A3G
CC(=O)c1ccc(NC(=O)C2CCCC2)cc1,-3.3,11,-1.2,-4,4.6,-5,x
O=C(COC(=O)C1CC1)Nc1ccc(Oc2ccccc2)cc1,1.3,-10,8.0,-4,1.4,-8,-3%
CC(C)c1csc(CN2CCC(N3CCC(C(=O)N4CCOCC4)CC3)CC2)n1,0.1,-1,-1.7,-8,2.4,-1,-1%
CCN(Cc1ccccc1)Cc1cc(OC)cc(OC)c1,-1.8,3,0.7,-9,-5.5,-15,21%
O=C(O)c1ccc(CNCc2cccc(Cl)c2)cc1,-2.2,2,-3.5,24,5.6,-16,19%
COc1ccc(N/C(C)=C2/C(=O)C(=O)N(CCO)C2c2ccc(Br)cc2)cc1 (stereo not given),3.9,-3,3.4,x,-2.5,u,4%
Cn1c2ccccc2c2cc(C(=O)O)ccc21,6.8,2,-0.9,-10,-0.1,4,-2%&-1%
Cc1ccc2c(N)c(C#N)sc2n1,3.4,-6,-1.1,-5,1.2,-10,u
CCOc1ccccc1NC(=O)CN1CCC(NC(=O)c2ccccc2C)CC1,-0.2,2,-2.8,-1,2.1,-5,-9%
COC(=O)C1=C(C)N(Cc2ccccc2)C(=NCc2cc(OC)c(OC)c(OC)c2)N[C@H]1c1ccccc1,x,14,-2.5,-16,-2.1,-21,x
COc1cc(=O)n(C)c2c(O)cccc12,-2.6,5,2.8,4,-3.6,16,x
CC(C)(C)c1ccc(-c2nnc(SCCC#N)n2C2CCCC2)cc1,0.1,-3,-0.2,1,1.7,34,87µM*
COc1ccc(OC)c(S(=O)(=O)NC2CC2)c1,1.0,-4,2.2,4,-1.5,-1,-8%
O=C(CC1N=C2c3ccccc3N=C(SCc3ccc(Cl)cc3)N2C1=O)NCc1ccco1 (stereo not given),-1.1,-3,x,-44,-4.3,x,13%
Cc1ccc(S(=O)(=O)n2cnc3cc([N+](=O)[O-])ccc32)c(C)c1C,0.9,1,4.4,-15,-0.3,2,17%
Cc1nnc(-c2ccc(Oc3ccc(Br)cc3)c([N+](=O)[O-])c2)o1,2.5,-16,2.5,2,-6.0,4,11%
CCOc1cc(OCC)cc(C(=O)Nc2cccnc2)c1,-0.5,-13,1.9,-2,-1.1,-1,3%
Cc1cc(C)nc(N2CCCC(C(=O)NCc3cccc(C(F)(F)F)c3)C2)n1 (stereo not given),4.7,-4,-3.2,-14,1.7,-17,-2%
COc1ccccc1CNC(=O)C(=O)NCC1CCCO1 (stereo not given),-0.3,-1,2.0,-4,-4.2,-3,4%
CCN(CC)c1ccc(NC(=O)COC(=O)COc2ccccc2[N+](=O)[O-])cc1,-0.8,-2,2.9,99*,-0.3,0,11%
CC(=O)OC1(C(C)=O)CCC2C3CC(C(F)(F)F)C4=CC(=O)CCC4(C)C3CCC21C (stereo not given),1.2,7,x,x,x,x,4%
CC(C)Oc1ccc2ccccc2c1CNC[C@H]1O[C@@H](n2cnc(C(N)=O)n2)[C@H](O)[C@@H]1O,-1.4,2,x,x,x,x,-1%
Cc1cccc(N2CCN(C(=O)c3ccc(CS(=O)Cc4ccc(Cl)cc4)o3)CC2)c1C (stereo not given),1.2,-3,3.0,-4,2.8,-2,x
Cc1ccc(N2CC(C)Cn3c2nc2c3c(=O)[nH]c(=O)n2C)cc1 (stereo not given),1.0,1,-0.8,x,x,-3,4%
CC1(c2ccccc2)NC(=O)N(CC(=O)Nc2ccc(N3CCOCC3)cc2N2CCOCC2)C1=O (stereo not given),2.9,-2,u,33,0.5,6,-4%
CCC(C)C(=O)Nc1nnc(SCC(=O)NC2CCCC2)s1 (stereo not given),-1.3,-4,6.2,-2,2.6,10,x
COc1ccc(C(=O)Nc2ccc(N3CCN(C)CC3)cc2)cc1[N+](=O)[O-],7.7,4,u,2,-6.0,-6,10%
CC(Sc1nnc(-c2cc3ccccc3o2)n1-c1ccccc1)C(=O)O (stereo not given),2.2,-1,0.6,3,1.7,-11,2%
O=C(COc1coc(CN2CCN(Cc3ccccc3)CC2)cc1=O)Nc1ccccc1,-2.6,-8,u,-2,-0.7,2,15%
COc1ccc(SC[C@H](Cc2ccccc2)N2CC[C@@H](O)CCC2=O)cc1,-1.7,5,x,1,-0.4,x,x
CC1CC1C(=O)OCC(=O)Nc1ccc(S(=O)(=O)N2CCOCC2)cc1 (stereo not given),-4.2,-1,x,-4,5.2,x,x
CCOC(=O)C(NC(=O)c1ccccc1)(Nc1cc(C)on1)C(F)(F)F (stereo not given),-0.7,-3,u,x,5.5,-31,-4%
O=C(CCC(=O)c1cccs1)NNC(=O)c1ccc(Cl)cc1,-0.4,4,x,-1,-0.5,x,3%
CCC(=O)Nc1c2c(nn1-c1cccc(Cl)c1)CS(=O)(=O)C2,4.5,-10,1.9,-6,0.2,9,x
CCOC(=O)c1cc2sccc2n1CC(=O)Nc1ccc2c(c1)OCCO2,3.1,-12,1.1,6,5.0,-20,-17%
O=c1c(-c2ccnn2-c2ccccc2F)cnc2n1CCS2,2.9,-24,0.2,-7,7.5,-2,3%
O=C(Nc1ccc(NC(=O)C2CCCCC2)nc1)c1cccs1,0.2,-25,-6.7,-1,-0.7,34,-1%
c1ccc(CCNc2ncnc3c2nnn3Cc2ccccc2)cc1,-3.7,-6,3.5,-3,-1.9,13,14%
COc1ccc(NC(=O)COC(=O)CN2C(=O)NC(C)(C)C2=O)cc1,5.0,6,x,x,-2.7,x,x
Cc1nc2ccccc2n1S(=O)(=O)N(C)C,0.3,-3,-1.7,-3,-3.4,13,1%
CCOC(=O)n1ccc(C(=O)Nc2ccccc2F)n1,2.0,3,1.2,96*,-4.6,-8,0%
CCn1c(C(=O)N2CCC(C(=O)N3CCN(c4ccccn4)CC3)CC2)cc2sccc21,3.0,-1,-3.5,-4,2.4,1,-3%
COc1cc(/C=C/C(=O)OCC(=O)Nc2cc(S(=O)(=O)N3CCOCC3)ccc2Cl)cc(OC)c1OC,-0.6,2,x,0,4.4,x,3%
Cc1onc(-c2ccccc2)c1C(=O)NCc1cccc(Cl)c1,0.6,-6,-1.1,-2,-6.5,8,x
O=C(CN(C(=O)c1csnn1)c1cccc(C(F)(F)F)c1)NC1CCCC1,2.4,9,1.6,4,-0.5,11,-5%
CCOC(=O)C1=C(CCc2ccccc2)NC(=O)NC1c1ccc(C#N)cc1 (stereo not given),-4.0,-7,-0.3,-1,3.1,30,x
CCN(CC)CCOC(=O)c1ccc(N/C=C(/C#N)c2nc(-c3ccc(OC)c(OC)c3)cs2)cc1,207,18,-4.2,0,-1.9,15,x
O=C1OCCC1Sc1nnc(-c2ccc3c(c2)OCO3)n1-c1ccccc1 (stereo not given),-3.3,-1,-0.1,-2,-0.9,-14,1%
CCOC(=O)Cc1csc(N/N=C\c2ccc(N(C)C)cc2)n1,6.0,6,1.2,-4,-9.0,20,6%
N=C1/C(=C/c2ccco2)C(=O)N=C2SC(CC(=O)N3CCCC3)=NN12,-15,5,5.3,10,1.0,2,23%
COc1ccc(OC)c(/C(O)=C/C(=O)C(=O)Nc2cc(C)ccc2OC)c1,5.5,7,0.2,-4,-1.4,-10,67%
Cc1ccc(O)c(N=Cc2ccc(C)s2)c1,4.2,0,-0.1,8,-2.7,11,u
Cc1n[nH]c(C)c1S(=O)(=O)N(C)Cc1ccco1,0.8,-4,x,-1,i,x,0%
CC(C)c1ccc(NC(=S)Nc2ccc3cn[nH]c3c2)cc1,-3.0,5,-1.7,x,2.7,21,x
CNC(=S)NNC(=O)c1sc(-c2cc(C)on2)nc1C,-0.3,2,-3.1,x,1.7,3,x
Cc1cccc(N2CCN(S(=O)(=O)c3ccc(-c4coc(C)n4)cc3)CC2C)c1 (stereo not given),5.2,3,-2.3,-1,-2.5,-17,x
Cc1cc(NC(=O)CN2C(=O)/C(=C/c3ccccc3F)SC2=S)no1,1.8,14,1.7,1,-2.5,6,x
CCC(C)N=CC1=C(O)CC(c2ccccc2)CC1=O (stereo not given),-0.8,2,-0.3,8,4.1,0,14%
O=C(Nc1ccc(SC(F)F)cc1)c1ccc2nccnc2c1,7.2,9,-4.3,-28,-13,u,-1%
CCOc1ccc(C(CC(=O)O)n2cnnn2)cc1 (stereo not given),-2.3,-5,5.0,3,1.9,8,x

# The list continues.
SMILES,HNF4A DNA FP,B2AR ag,RanGTP-Imp inh,ALR inh,LANA-H2A inh,Calb FLC,Vif A3G
CCOC(=O)C1(C(=O)OCC)C(C(=O)c2ccccc2)C1c1ccccc1 (stereo not given),-4.8,-4,x,x,x,x,-4%
O=C(Nc1ncn[nH]1)c1ccc([N+](=O)[O-])cc1[N+](=O)[O-],-1.4,13,1.5,x,-1.6,-7,4%
CCOC(=O)c1cnn(-c2ccc(Cl)cc2)c1C1CCN(C(=O)OC(C)(C)C)CC1,-0.3,12,4.9,x,3.4,u,11%
O=C(N1CCC(O)(c2cccnc2)CC1)C12CC3CC(CC(C3)C1)C2,-0.9,-3,7.4,-11,-0.9,-4,24%
CCOc1ccc(C2Oc3nc(SC)nnc3-c3ccccc3N2C(C)=O)cc1OC (stereo not given),1.4,-6,0.7,-16,-2.3,-2,1%
Cc1ccc(/C=N/Nc2nc3ccccc3s2)o1,-0.8,5,2.9,u,-4.8,-14,-6%
CC(=O)c1ccc(NC(=S)NNC(=O)NC2CCCCC2)cc1,0.9,1,-2.0,94*,3.2,u,-5%
O=C(O[C@@H]1[C@H](Cc2ccccc2)NS(=O)(=O)[C@H]2C[C@@H]3C=C[C@]12O3)c1ccccc1Br,6.9,-8,x,6,-2.0,x,x
C#CC1CCCCC1NC(=O)Nc1cnccc1C(F)(F)F (stereo not given),2.4,4,-1.8,1,0.0,-3,-4%
CCOc1ccccc1/C=C(\NC(=O)c1ccccc1)C(=O)NCCC(=O)O,-0.5,-4,4.2,-5,3.1,8,6%
COc1ccc(-c2oc(=O)c3cc(OC)c(OC)cc3c2C(F)(F)F)cc1,5.2,-6,x,-8,4.6,x,x
COc1cccc(/C=N/n2c(COc3ccccc3)n[nH]c2=S)c1O,3.3,6,-3.3,u,-1.3,3,-3%
CCN(CC(=O)NCc1cccs1)C(=O)Cc1ccc(C)c(C)c1,0.3,0,x,2,-0.6,x,x
COc1cccc(C2c3c(oc4ccc(F)cc4c3=O)C(=O)N2CCCN2CCOCC2)c1 (stereo not given),3.3,-18,1.3,3,1.9,-7,12%
CN(C(=O)c1cccc(NC(=O)c2ccccc2)c1)C1CCCCC1,0.4,-10,-1.9,-2,7.0,-10,x
N#Cc1cccc(C(=O)OCC(=O)NCc2ccco2)c1,3.8,2,1.9,2,-7.4,-9,x
O=C(CN1C(=O)c2ccccc2C1=O)NCCc1c[nH]c2ccccc12,-1.1,1,0.8,6,5.0,-5,-5%
CC(C)(C)Nc1c(-c2cccs2)nc2ccccn12,-1.6,-13,3.1,99*,-1.2,-1,0%
CCOC(=O)CNC(=O)CSc1nnnn1-c1cc(C)ccc1C,0.9,4,-1.2,-5,-0.9,-3,-2%

# Whole records, looked up by structure. Screens in order: HNF4A DNA FP, B2AR ag, RanGTP-Imp inh, ALR inh, LANA-H2A inh, Calb FLC, Vif A3G
# `CCOc1ccc(C2Oc3nc(SC)nnc3-c3ccccc3N2C(C)=O)cc1OC` (stereo not given) in the list: 1.4, -6, 0.7, -16, -2.3, -2, 1%
# `CC(C)(C)Nc1c(-c2cccs2)nc2ccccn12` in the list: -1.6, -13, 3.1, 99*, -1.2, -1, 0%
# `CCN(CC(=O)NCc1cccs1)C(=O)Cc1ccc(C)c(C)c1` in the list: 0.3, 0, x, 2, -0.6, x, x
# `CCOC(=O)C1(C(=O)OCC)C(C(=O)c2ccccc2)C1c1ccccc1` (stereo not given) in the list: -4.8, -4, x, x, x, x, -4%

# Rows were taken by chance (roughly 6.3% active in at least one column).
